Compound activity: PubChem, ICCB-Longwood Screening Facility, Harvard Medical School
BasE inh – BasE siderophore biosynthesis inhibition; inhibition, % (concentration not given with the values); purified BasE, fluorescence polarization binding displacement; 0.1% of 84,000 active;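 active means both replicates above 25% with normal brightness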;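 further: 0% = negative plate control signal and 100% = positive plate control signal; stock transfer was 100 nL into about 30 µL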
LANA-nucl inh – LANA-nucleosome interaction inhibition; FITC-LANA1-23 / chicken nucleosome fluorescence polarization; hits give low values; 0.3% of 51,000 active; z-score (concentration not given with the values);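 active means both repeat wells score below -2 in polarization z-score versus plate sample wells, excluding overly bright wells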;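 further: 100 nL library stock added to about 30 µL; numbers are from one replicate; some results filed as inactive read as strong as hits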
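Test system: purified chicken nucleosomes with FITC-labelled LANA N-terminal peptide (1-23); Input: 240 nM purified chicken nucleosomes (480 nM peptide binding sites), final; Medium: TEN-BT buffer, pH 7.5; Timing: 10–45 min, room temperature; Technique: fluorescence polarization, 480 nm excitation, 535 nm parallel and perpendicular emission; Replication: duplicates.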
The depositor's hits bear a star; . = not tested or not shown; & = joins results of further samples. The list is partial; count on the stated rates, not on these rows.

Order of values – BasE inh, LANA-nucl inh
- Cc1ccc2occ(CC(=O)Nc3ccc(S(=O)(=O)N4CC(C)OC(C)C4)cc3)c2c1 (configuration not stated)
    1.4, 0.48
- Nc1ccc2[nH]c3ccccc3c2c1
    -19, -0.028
- O=C(CCc1nc2ccccc2s1)OCC(=O)c1ccco1
    -3.7, .
- Cn1nc(C(=O)NC2CCN(Cc3ccccc3)CC2)c2c1-c1ccccc1S(=O)(=O)C2
    -0.1, 0.29
- CN(C)C(=Nc1ccccc1)P(=O)(c1ccccc1)N(C)C (configuration not stated)
    1.5, .
- COc1ccccc1NC(=O)CSc1nc2ccccc2cc1C#N
    -2.7, -1.6
- Cc1coc2cc3oc(=O)cc(C)c3cc12
    1.5, -1.3
- CCCCN(C)c1ncnc2c1sc1nc3c(cc12)COC(C)(C)C3
    0.4, .
- Cc1ccc(C)n1-c1sccc1C(=O)Oc1ccc2c(c1)OCO2
    -1.0, .
- Cc1c(C(=O)O)[nH]c2c1C(=O)CC(c1ccc(Cl)cc1)C2 (configuration not stated)
    3.6, -1
- C=CCc1ccc(OCCOCCN2CCN(C)CC2)c(OC)c1
    3.1, .
- O=C(CN1CCC2(CC1)OCCO2)Nc1ccccc1
    5.7, -0.59
- Cn1c(=O)[nH]c(=O)c2[nH]c(NCCO)nc21
    3.4, -0.55
- COc1ccccc1NC(=O)Nc1ccnn1C1CCCCC1
    0.3, .
- Cc1cccn2c(N)c(-c3ccccc3)nc12
    2.1, .
- O=c1c2ccccc2nc(-c2ccc(F)cc2)n1NCc1ccccc1O
    0.5, -0.81
- COc1ccc(C2C(=O)N(CCc3ccccc3)CC(=O)N2Cc2ccc3c(c2)OCO3)cc1 (configuration not stated)
    2.8, 0.0065
- COc1ccccc1CN(C)C(=O)c1cc(C)nc2ccccc12
    0.8, .
- CC(C)=NNS(=O)(=O)c1ccc(N2CCCC2=O)cc1
    -2.3, 0.0015
- O=C1c2ccccc2S(=O)(=O)N1CCCCN1C(=O)c2ccccc2S1(=O)=O
    1.3, .

Remaining list, next part
Order of values – BasE inh, LANA-nucl inh
- c1ccn2c(c1)nc1c2nc2ccccn21
    1.4, -0.57
- Cc1nc2nc[nH]n2c(=O)c1NS(C)(=O)=O
    2.0, .
- O=C(NN1CCN(c2ccccc2)CC1)c1cc(Cl)sc1Cl
    0.8, -0.38
- C=CCNC(=O)COc1cccc2c(=O)n(CC)ccc12
    -0.3, -0.16
- COc1ccccc1C(=O)Nc1ccc(S(C)(=O)=O)cc1
    0.1, .
- Nc1ccc(S(=O)(=O)Nc2ccccn2)cc1
    -1.4&6.1, 0.48&0.009&0.85
- COc1ccc(OCCn2c(NC(=O)c3ccccc3Cl)nc3ccccc32)cc1
    -5.7, .
- Cc1c(C(C)(C)C)s/c(=N\S(=O)(=O)c2ccc(Cl)cc2)n1C
    3.6, .
- N#Cc1c(N)n[nH]c1CCCNC(=O)c1oc2ccccc2c1CSc1ccc(Cl)cc1
    -0.5, .
- COc1ccc(CCC(=O)Nc2nc3ccccc3[nH]2)cc1OC
    -5.9, .
- CCn1c(CCc2ccccc2)nnc1SCC(N)=O
    3.5, -1.6
- CCCn1c(N)c(NCCN2CCOCC2)c(=O)n(CC(=O)NCc2ccccc2)c1=O
    0.4, .
- C/C(=N\N=C(/N)SCc1cc(F)cc2c1OCOC2)c1ccc(C)nc1
    -3.1, 1.3
- O=C(CSc1nc2ccccc2s1)OCC(=O)c1ccc[nH]1
    -0.8, .
- COC(=O)c1ccc2c(=O)[nH]c(COC(=O)c3ccccc3OCc3c(C)noc3C)nc2c1
    2.1, .
- CCOC(=O)C1CCN(C(=O)C(C)OC(=O)c2ccccc2O)CC1 (configuration not stated)
    -0.4, .
- NS(=O)(=O)c1ccc(CCNC(=O)C2CCCCN2S(=O)(=O)c2ccccc2)cc1 (configuration not stated)
    3.9, .
- CC(C)c1cc(=O)c2c(=O)n(-c3ccccc3)[nH]c2[nH]1
    2.9, 0.34
- CC(=O)N(C)c1ccc(N=Nc2c(-c3ccccc3)[nH][nH]c2=O)cc1
    2.3, -0.83
- CN1C(=O)C(=Cc2cn(CC(=O)O)c3ccccc23)C(=O)N(C)C1=S
    -5.0, 0.82

New compounds follow:
Order of values – BasE inh, LANA-nucl inh
- Cc1noc(C)c1C(=O)OCC(=O)NC(c1ccccc1)c1ccccc1
    0.3, .
- O=C1CCCC(=O)C1C(c1ccc(-c2cc(C(F)(F)F)ccc2Cl)o1)C1C(=O)CCCC1=O
    1.5, .
- CCOC(=O)c1nc(C)sc1-c1ccnn1S(=O)(=O)c1ccc(Cl)cc1Cl
    2.3, .
- FC(F)(F)c1ccc2ccccc2c1Cl
    0.4, .
- COCCNC(=O)c1cc2c(s1)-c1ccsc1CC2
    -0.1, 0.43
- COc1cc(C(=O)N2CCOCC2)cc(OC)c1OC
    ., -0.33
- CCOc1cc(C(=O)NC2=C(C(=O)OC)SCC2)cc(OCC)c1OCC
    -0.7, 0.068
- CCOC(=O)c1cc(NC(=O)SCC(=O)O)c(C)nc1C
    1.2, .
- c1coc(CSCCNc2nc(-c3cccs3)nc3ccccc23)c1
    0.7, .
- N#C/C(=C\C=C\c1ccco1)C(=O)Nc1cccc(Br)c1
    -1.4, .
- CS/C(=C(/C#N)S(=O)(=O)C(C)C)N1CCCCC1
    0.1, 0.7
- COc1ccc(C2C(C#N)=C(N)OC(C3CC3)=C2C#N)cc1 (configuration not stated)
    -1.2, .
- COCCn1c(SCc2cc(=O)n3ccsc3n2)nnc1-c1ccncc1
    2.0, .
- CCN(CC)c1ccc2cc(C(=O)Nc3ccc(NC(C)=O)cc3)c(=O)oc2c1
    1.7, -2.3
- O=c1oc(-c2ccccc2Br)nc2sc3c(c12)CCC3
    -6.4, .
- OCC#Cc1cnc2ccccc2c1
    0.5, -0.39
- COC(=O)N/N=C/c1ccc2c(c1)OCO2
    -0.2, .
- CCOC(=O)c1c(Nc2ccc(OC)c(Cl)c2)n[nH]c1C
    1.6, -0.9
- O=P1(O)C=C(c2ccccc2)OC(c2ccccc2)=C1
    0.2, .
- CN(C)CC(C)(C)CNCc1ccc(-n2cnc3ccccc32)cc1
    -2.6, .

Five of the compounds above, tab-delimited.
Compound	BasE inh	LANA-nucl inh
CS/C(=C(/C#N)S(=O)(=O)C(C)C)N1CCCCC1	0.1	0.7
Nc1ccc2[nH]c3ccccc3c2c1	-19	-0.028
Cc1coc2cc3oc(=O)cc(C)c3cc12	1.5	-1.3
CCOC(=O)c1nc(C)sc1-c1ccnn1S(=O)(=O)c1ccc(Cl)cc1Cl	2.3	.
O=c1oc(-c2ccccc2Br)nc2sc3c(c12)CCC3	-6.4	.

Later entries
Order of values – BasE inh, LANA-nucl inh
- N#Cc1c(S/C=C(\O)c2ccccc2)nc2c(c1C(F)(F)F)CCCC2
    -7.1, .
- CN(C)c1ccc(NC(=O)/C=C\C(=O)N2CCOCC2)cc1
    -1.8, -0.82
- CC(=O)N/N=C(\C)CCc1ccccc1
    1.5, .
- Cc1ccc2nc(-c3ccc(Cl)c(NC(=O)c4ccc5c(c4)OCCO5)c3)oc2c1
    0.6, 0.31
- CCOC(=O)c1sc(=NC(=O)c2ccc(OCC)cc2)n(C)c1C
    2.4, .
- Cc1ccc2c(c1)c1c3n2CCN(C(=O)Cn2c(-c4ccccc4)noc2=O)C3CCC1 (configuration not stated)
    -1.4, -0.061
- CCC(c1nnnn1CCOC)N1CCN(c2nc3ccccc3s2)CC1 (configuration not stated)
    -1.8, 0.053
- CN1CC(=O)N2[C@H](c3ccc4c(c3)OCO4)c3[nH]c4ccccc4c3C[C@@H]2C1=O
    ., -0.009
- Cc1ccccc1N=C1SCCN1C(=O)c1ccc2c(c1)OCCO2
    0.8, .
- CN(CCNC(=O)Cn1ncc2c3ccccc3n(C)c2c1=O)C1CCCCC1
    -4.0, -0.28
- O=C(Nc1cccc2ncccc12)C1CC(=O)N(Cc2ccco2)C1 (configuration not stated)
    1.3, .
- Cc1ccc(C)c(S(=O)(=O)n2ccc(C)n2)c1
    -2.9, 1.6
- CCc1ccc(NC(=O)Nc2ccccc2)cc1
    0.2, -0.3
- CC(C)CC(=O)Nc1ccc(C(=O)COC(=O)c2ccc(-n3cnnn3)cc2)cc1
    -1.5, .
- NC(=O)c1ccccc1N/C=C/C(=O)c1ccccc1
    -1.0, -0.4
- CCc1ccccc1S(=O)(=O)Cc1ccc(C(=O)NCc2cccs2)o1
    -1.2, 0.67
- CCCCN=C1SCC(c2c[nH]c3ccccc23)=NN1C
    -4.7, .
- CCCS(=O)(=O)N1CCCC(C(=O)NC(C)C)C1 (configuration not stated)
    -0.7, 0.56
- CCC(Sc1nc2cc(OC)c(OC)cc2c2nc(-c3ccccc3)nn12)C(=O)NCc1ccco1 (configuration not stated)
    0.1, -0.13
- COC(=O)c1cnc(N2CCN(c3ncc(C(=O)OC)c(C(F)(F)F)n3)CC2)nc1C(F)(F)F
    1.9, 0.054

More structures
Order of values – BasE inh, LANA-nucl inh
- COc1ccc2c(c1)C(=O)/C(=C/c1ccc(N(C)C)cc1)CC2
    -34, .
- CCc1cccc(C)c1NC(=O)C1COc2ccccc2O1 (configuration not stated)
    0.5, .
- Cc1ccccc1SCC(=O)OC(C)C(N)=O (configuration not stated)
    1.0, .
- Cc1ccc(S(=O)(=O)/N=C(\c2ccccc2)N(C)S(=O)(=O)c2ccc(C)cc2)cc1
    -2.4, .
- c1ccc2c(c1)CCCC2C1=NCCN1 (configuration not stated)
    -0.7&1.6, 0.26&-0.96
- COc1cccc(NC=C2C(=O)OC(C)(C)OC2=O)c1
    0.4, -1.7
- CCCCC(=O)Nc1ccc(N2CCN(C(=O)CCC)CC2)c(Cl)c1
    -0.3, -0.13
- CCOC(=O)c1sc2nc(C)nc(N3CCC(C)CC3)c2c1C
    2.9, .
- O=C(Cn1c(-c2cccs2)cc2ccccc21)NCc1cccs1
    2.8, -0.9
- Cc1nc(NCC(=O)O)c2c3c(sc2n1)CCCC3
    -1.1, 0.73
- CCc1ccccc1N=C1SCC(=O)N1C
    1.8, -0.88
- O=C(/C=C/c1ccc(S(=O)(=O)N2CCCCCC2)cc1)OCc1nnc(-c2ccccc2)o1
    1.3, .
- COc1ncnc(Cl)c1N
    -1.0, 0.22
- O=C(O)COCC(=O)N1CCN(c2cc(C(F)(F)F)nc3ccccc23)CC1
    0.1, .
- CC(=O)N1CCN(C(=O)CSc2nc3cc(Cl)ccc3s2)CC1
    -1.8, .
- C=CCn1c(SCC(=O)Nc2sc3c(c2C(N)=O)CCC3)nc2sc(C)c(C)c2c1=O
    0.5, .
- CN(CCc1ccccn1)C(=O)Nc1ccc(C(C)(C)C)cc1
    ., -0.46
- NC(N)=NCc1cccc(I)c1
    -1.2, 0.032
- CC(=O)Nc1ccc(NC(NC(=O)c2cccs2)C(=O)c2ccccc2)cc1 (configuration not stated)
    0.5, .
- Nn1c(SCc2cc(=O)oc3cc(O)c(O)cc23)nnc1-c1ccncc1
    2.0, .

Next section:
Order of values – BasE inh, LANA-nucl inh
- Cc1ccc(SC2CN(C(c3ccccc3)c3ccccc3)C2)cc1
    ., 2.5
- C=CCNC(=O)c1ccccc1NC(=O)C1COc2ccccc2O1 (configuration not stated)
    -1.4, 0.3
- O=c1c2c(nc(NCCCO)n1Cc1ccccc1)-c1ccccc1CC21CCCC1
    0.4, -0.65
- CC(=O)NCc1n[nH]c(=O)c2ccccc12
    2.8, -0.3
- Cc1cccc(-n2cnc3c(c2=O)c2nc4ccccc4nc2n3CCC(C)C)c1
    21, -1.4
- Cc1ccc(C2=NS(=O)(=O)N(C)C(C(=O)Nc3cc(C)n(CC(=O)N4CCOCC4)n3)=C2)cc1
    2.2, 0.56
- O=C(CSc1ncn[nH]1)Nc1cccc2ccccc12
    0.3, -0.1
- O=C(C1CC(=O)N(c2ccc(Cl)cc2)C1)N1CCN(Cc2ccc3c(c2)OCO3)CC1 (configuration not stated)
    -1.8, 0.77
- CC(NC(=O)c1ccc(-c2ccccc2)cc1)C(=O)O (configuration not stated)
    -2.8, 2.3
- O=C(CN1CCc2sccc2C1c1cccs1)N1CCC(c2ccccc2)=N1 (configuration not stated)
    0.0, .
- CCOC(=O)c1sc(N2C(=O)C(O)=C(C(=O)c3ccco3)C2c2ccco2)nc1C (configuration not stated)
    41, 0.25
- O=C(NCCc1cccs1)c1ccc(Cl)cc1
    0.8, -0.36
- Cc1nc(C(F)(F)F)ccc1C(=O)N1CCC(n2cccc2)CC1
    0.3, -0.4
- Cc1nnsc1C(=O)N1CCN(C=O)CC1
    1.4, -1.1
- COc1ccccc1OC(=O)c1sccc1C
    2.8, .
- Cc1ccc(S(=O)(=O)NC(=O)N2CCCC2)cc1
    0.1, .
- N#CCc1nc2ccccc2c(=O)[nH]1
    0.9, .
- COc1ccc(C(=O)NC(C)C)cc1I
    -4.7, 0.11
- Cc1ccccc1-n1ccnc1SCC(N)=O
    -2.0, 2
- CC(Sc1nc2cc(Cl)ccc2c(=O)n1C(C)C)C(=O)Nc1ccc(N2CCOCC2)cc1 (configuration not stated)
    -1.1, .

(further entries)
Order of values – BasE inh, LANA-nucl inh
- O=c1nc(NC2CCCCC2)cn[nH]1
    0.9, -0.18
- COC(=O)c1ccc(N2CCc3cc4ccc(C)cc4nc32)cc1
    0.9, -0.94
- Brc1ccc2ncnc(N3CCCCCC3)c2c1
    -2.0, -1.2
- CCOC(=O)CC(=O)Cc1nc(N)nc(Nc2ccc(C)c(C)c2)n1
    0.5, -0.84
- Cc1nc(NC2=NCN(CCCN3CCOCC3)CN2)nc2c(C)cccc12
    -1.8, -0.8
- c1ccc2c(c1)NC1(CCCC1)n1c-2nc2ccccc21
    2.1, .
- Cn1cc(S(=O)(=O)Nc2ccccc2N2CCOCC2)c(C(F)(F)F)n1
    3.5, .
